Compound activity (PubChem)
LMNA splice mod: qHTS Assay for Modulators of Lamin A Splicing; HeLa LMNA splicing GFP/RFP minigene ratio, 48 h; Potency, µM (top dose mostly 46.1 µM), inactives show at the highest dose ratio change, negative = inhibition, actives largely listed as inhibitors; 0.01% of 200,000 active; active = well fitted inhibition curve with a large enough effect in the signal ratio, with a control signal flat, not every such curve was filed as active; inconclusive = small, poorly fitted or top-dose-only effect, or effect the other way, or a change in a side signal; the % refers to the signal ratio; also: % is scaled to controls: 0 for no effect and ±100 for the full control effect
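S3 HeLa stable clones carrying a lamin A-EGFP splicing minigene plus DsRed2 were seeded at 600 cells/well in Opti-MEM with 2% FBS, pin-dosed and incubated 48 h at 37°C. Acumen cytometry (488 nm) gave the GFP/RFP total-intensity ratio.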
TRb-SRC2 inh: qHTS for Inhibitors of the Interaction of Thyroid Hormone Receptor and Steroid Receptor Coregulator 2; Thyroid hormone receptor beta (Homo sapiens), P10828; AID 1469, 2008; TRbeta-SRC2 peptide binding, fluorescence polarization; receptor liganded with 1 µM T3; Potency, µM (top dose mostly 106 µM), for the others: at the highest dose activity change, negative = inhibition, actives largely listed as inhibitors; 0.065% of 280,000 active;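 also: plate controls were bound peptide for no effect and peptide without receptor for full effect; nearly all actives have a fitted effect of over 50% in size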
Target sequence (P10828 whole entry, looked up): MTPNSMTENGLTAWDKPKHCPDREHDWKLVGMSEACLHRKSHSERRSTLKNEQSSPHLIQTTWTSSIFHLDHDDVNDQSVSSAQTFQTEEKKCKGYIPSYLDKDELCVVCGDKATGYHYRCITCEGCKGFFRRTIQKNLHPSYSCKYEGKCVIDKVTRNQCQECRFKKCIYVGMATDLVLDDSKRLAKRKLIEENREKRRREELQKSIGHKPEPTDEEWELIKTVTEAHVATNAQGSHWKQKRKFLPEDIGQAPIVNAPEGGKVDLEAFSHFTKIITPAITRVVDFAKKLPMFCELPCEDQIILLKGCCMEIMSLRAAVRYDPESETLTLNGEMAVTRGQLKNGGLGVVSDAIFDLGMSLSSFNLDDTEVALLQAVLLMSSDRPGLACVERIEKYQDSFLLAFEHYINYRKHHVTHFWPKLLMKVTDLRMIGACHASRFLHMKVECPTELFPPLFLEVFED
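Each compound concentration gave % activity, normalized to unbound and bound Texas Red SRC2 controls, from polarization read after 5 hr ambient incubation with T3-loaded human TRb LBD.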
RECQ1 inh: qHTS Assay for Inhibitors of RecQ-Like Dna Helicase 1 (RECQ1); RECQ1 DNA unwinding, red fluorescence kinetic read; 0.54% of 240,000 active; Potency, µM (series often up to 57.3 µM), for the others: at the top dose activity, negative = inhibition, most hits filed as inhibitors; AID 2549, 2010; ATP-dependent DNA helicase Q1 (Homo sapiens), P46063;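 also: plate controls were vehicle for no effect and no enzyme for full effect; nearly all actives have a fitted effect of over 30% in size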
Target sequence (P46063 whole entry, looked up): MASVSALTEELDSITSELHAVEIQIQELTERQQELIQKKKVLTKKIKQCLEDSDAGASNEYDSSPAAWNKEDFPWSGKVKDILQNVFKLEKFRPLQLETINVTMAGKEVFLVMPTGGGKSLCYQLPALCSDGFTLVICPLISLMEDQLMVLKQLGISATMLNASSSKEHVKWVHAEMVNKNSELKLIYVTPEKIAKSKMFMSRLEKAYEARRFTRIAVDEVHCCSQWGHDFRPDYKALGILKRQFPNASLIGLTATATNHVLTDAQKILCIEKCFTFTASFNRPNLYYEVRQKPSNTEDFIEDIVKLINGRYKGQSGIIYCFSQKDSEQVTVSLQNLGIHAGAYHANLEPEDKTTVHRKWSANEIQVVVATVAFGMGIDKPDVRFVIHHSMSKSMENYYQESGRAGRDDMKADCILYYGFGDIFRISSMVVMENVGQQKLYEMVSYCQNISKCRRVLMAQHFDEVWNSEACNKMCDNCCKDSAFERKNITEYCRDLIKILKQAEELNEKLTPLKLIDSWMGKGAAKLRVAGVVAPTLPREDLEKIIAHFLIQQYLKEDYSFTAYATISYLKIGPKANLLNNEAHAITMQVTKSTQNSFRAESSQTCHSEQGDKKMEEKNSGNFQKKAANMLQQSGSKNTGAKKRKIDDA
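50 nM RECQ1T1 preincubated 15 min with compound in Tris pH 8.0 buffer with MgCl2, DTT, Tween-20 and 2.5 ug/ml poly(dI-dC); started with 200 nM TAMRA/BHQ-2 forked duplex and 2 mM ATP. Unwinding read as fluorescence (525/598 nm), two reads 2 h apart.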
JMJD2E inh: qHTS Assay for Inhibitors of Human Jumonji Domain Containing 2E (JMJD2E). JMJD2E catalytic domain, FDH-coupled NADH fluorescence (FDH is formaldehyde dehydrogenase). Potency, µM (highest dose often 57.1 µM), inactives show at the top dose activity change, negative = inhibition, most hits filed as inhibitors. 1.6% of 230,000 active. AID 2147, 2009; active = well fitted inhibition curve with a large enough effect, not every such curve was filed as active; inconclusive = small, poorly fitted or top-dose-only effect, or another doubt; inactive = no such curve, though single readings can be large or run the other way;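 also: 0% = wells with enzyme and -100% = buffer wells without enzyme; nearly all actives have a fitted effect of over 50% in size; many of its hits are not listed in these tables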
SMN2 splice up: qHTS Assay for Enhancers of SMN2 Splice Variant Expression; 2.8% of 210,000 active; HEK293 SMN2-luciferase splicing reporter, luminescence, 30-36 h; Potency, µM (titrated, usually from 46.1 µM), without a hit: top-dose activity change, positive = activation, hits mostly activators; also: % of control where 0% means no effect; nearly all actives have a fitted effect of over 55% in size
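qHTS luciferase splicing reporter: luminescence rises when SMN2 exon 7 is included in transfected HEK293 cells. Compound exposure lasted 30-36 h at 37C, with 4.5 mM final sodium butyrate as control, followed by a ONE-Glo read.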
GoLoco inh red: qHTS Assay for Inhibitors of RGS12 GoLoco Motif Activity (Red Fluorophore); Guanine nucleotide-binding protein G(i) subunit alpha-1 (Homo sapiens), P63096; Gai1:RGS12 GoLoco peptide FP, rhodamine, 10 min; Potency, µM (highest dose often 61.6 µM), without a hit: at the top dose activity, negative = inhibition, hits mostly inhibitors; 0.44% of 230,000 active; AID 880, 2007; active = well fitted inhibition curve with a large enough effect, not every such curve was filed as active; inactive = no such curve, though single readings can be large or run the other way; also: % is scaled to controls: 0 for no effect and ±100 for the full control effect; nearly all actives have a fitted effect of over 30% in size; many of its hits are not listed in these tables
TR SRC2 fluor cs: Total Fluorescence Counterscreen for Inhibitors of the Interaction of Thyroid Hormone Receptor and Steroid Receptor Coregulator 2 | Potency, µM (series often up to 106 µM), without a hit: at the top dose fluorescence change, negative = quenching | AID 1479, 2009 | TRb/SRC2 Texas Red total fluorescence interference | 0.29% of 280,000 active; active = well fitted curve in either direction with a large enough effect; inconclusive = small, poorly fitted or top-dose-only effect; also: % is scaled to controls: 0 for no effect and ±100 for the full control effect
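Human TRβ ligand-binding domain (0.6 uM) and Texas Red SRC2 peptide (20 nM) in Tris buffer with 1 uM T3 and 5% DMSO were incubated with pinned compound for 5 hr at ambient temperature. Total fluorescence was computed as S + 2P (555/632 nm).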
Numbers without * were called inactive; i = inactive; ? = inconclusive; / = not tested or not shown; [ ] = remark or other dose. Unless noted, calls follow the shape of the dose curve; as a rule, active = well fitted curve in the direction sought with a large enough effect; inconclusive = small, poorly fitted or top-dose-only effect, or another doubt; inactive = no such curve, though single readings can be large; an effect the other way counts as inactive or inconclusive. Potency is read from the fitted curve at half-maximal effect. The list is partial; the hit share may differ from the screen's.

SMILES	LMNA splice mod	TRb-SRC2 inh	RECQ1 inh	JMJD2E inh	SMN2 splice up	GoLoco inh red	TR SRC2 fluor cs
O=C(Nc1ccc(NC(=O)C2CCCN2C(=O)OCc2ccccc2)cc1)c1ccco1 (stereo not given)	?	2%	-7%	3%	-10%	12%	-3%
COc1ccc(C2C(C(=O)Nc3cc(C)on3)c3ccccc3C(=O)N2C)cc1 (stereo not given)	0%	1%	-3%	4%	-17%	3%	2%
Cc1cc(C(=O)N2CCc3c([nH]c4ccccc34)C2c2cccc(Cl)c2)nn1C (stereo not given)	/	7%[53 µM]	i	0%	/	30%	0%[53 µM]
COc1ccc(C2Oc3ccccc3C3=C2C(c2cccs2)n2ncnc2N3)cc1 (stereo not given)	-23%	1%	-2%	?	-37%[inhibitor]	66%[activator]	-2%
CCOc1ccc2nc(SC(CC)C(=O)Nc3cc(C)on3)sc2c1 (stereo not given)	?	2%	3%	-1%	18%	-1%	0%
Cc1onc(-c2c(Cl)cccc2Cl)c1C(N)=O	13%	-4%	13%	-4%	-5%	7%	1%
Cc1sc(NC(=O)CSc2nnnn2C)c(C#N)c1C	10%[46 µM]	-4%	i	-3%	2%	19%	-8%
C[C@@H](c1ccccc1)N1C(=O)[C@H]2[C@@H]3[C@H](O)C=CC(=O)[C@H]3CC[C@H]2C1=O	/	-3%[11.2 µM]	-9%[11.5 µM]	/	/	/	-4%[11.2 µM]
O=C(O)c1ccccc1C(=O)Nc1ccc(Oc2ccc3ccccc3c2)cc1	12%[46 µM]	8%[53 µM]	i	5%	/	10%	5%[53 µM]
O=c1c(Cl)c(Cl)cnn1Cc1ccc(F)cc1	/	-12%	6%	1%	/	-9%	-5%
COC(=O)Cc1ccc(NC(=S)NCCCN2CCOCC2)cc1	?	-5%	i	0%	44%	10%	-4%
CCN(CC)C(=O)Cn1cc(S(=O)(=O)CC(=O)NCCc2ccc(OC)c(OC)c2)c2ccccc21	7%[9.22 µM]	-3%	i	-18%	-5%	1%	-2%
CC(C)[C@H](N)C(=O)OCCOCn1cnc2c(=O)[nH]c(N)nc21	?	0%	-5%	/	/	-5%	0%
O=C(CNC(=S)N(Cc1ccc(F)cc1)C1CCCCC1)NCCN1CCOCC1	10%[46 µM]	-3%	-5%	5%	-7%	7%	-4%
Cc1ccc(/C=N/NC(=O)CN2CCN(S(=O)(=O)c3ccc(Br)cc3)CC2)s1	-10%	-2%	-7%	-7%	-17%	-3%	0%
O=C(COC(=O)c1cn(-c2ccccc2)nc1-c1cccs1)NC1CC1	3%	5%	-2%	-26%	-20%	-10%	1%
COc1ccc(N2CCN(c3ccc(N4C(=O)CC(C)C4=O)cc3[N+](=O)[O-])CC2)cc1 (stereo not given)	20%[46 µM]	1%	-2%	4%	-9%	-1%	-1%
COc1nccnc1NS(=O)(=O)c1ccc(N=Cc2c(C)[nH]n(-c3ccc(C)c(C)c3)c2=O)cc1	1%	6%	-2%	2%	-19%	-4%	1%
COc1ccccc1NC(=O)COc1ccccc1	4%	0%	-16%	-13%	-5%	7%	-7%
O=C(CN(C(=O)Cn1nnc(-c2cccs2)n1)c1ccc2c(c1)OCCO2)NCC1CCCO1 (stereo not given)	-4%	-15%	-6%	2%	-9%	2%	-2%
Cc1nnc(SCCn2c(N3CCN(Cc4ccccc4)CC3)nc3c2c(=O)[nH]c(=O)n3C)s1	4%	-3%	-4%	1%	24%	7%	-3%
c1cncc(C2OCC3(CO2)COC(c2cccnc2)OC3)c1 (stereo not given)	8%[46 µM]	-2%[53 µM]	-14%	-1%	/	3%	0%[53 µM]
COc1ccc(C(CC(=O)O)NC(C)=O)cc1OC (stereo not given)	-2%	-4%	-10%	0%	9%	11%	-4%
O=C(NCc1c(Cl)cccc1Cl)c1ccc2nnsc2c1	/	0%	-8%	-7%	/	1%	-4%
O=C(COc1ncnc2sccc12)Nc1cccc(S(=O)(=O)N2CCCC2)c1	7%[46 µM]	2%	-13%	-16%	/	32%[activator]	-2%

Of the compounds above, these have two or more sulfur atoms:
SMILES	LMNA splice mod	TRb-SRC2 inh	RECQ1 inh	JMJD2E inh	SMN2 splice up	GoLoco inh red	TR SRC2 fluor cs
CCOc1ccc2nc(SC(CC)C(=O)Nc3cc(C)on3)sc2c1 (stereo not given)	?	2%	3%	-1%	18%	-1%	0%
Cc1sc(NC(=O)CSc2nnnn2C)c(C#N)c1C	10%[46 µM]	-4%	i	-3%	2%	19%	-8%
Cc1ccc(/C=N/NC(=O)CN2CCN(S(=O)(=O)c3ccc(Br)cc3)CC2)s1	-10%	-2%	-7%	-7%	-17%	-3%	0%
Cc1nnc(SCCn2c(N3CCN(Cc4ccccc4)CC3)nc3c2c(=O)[nH]c(=O)n3C)s1	4%	-3%	-4%	1%	24%	7%	-3%
O=C(COc1ncnc2sccc12)Nc1cccc(S(=O)(=O)N2CCCC2)c1	7%[46 µM]	2%	-13%	-16%	/	32%[activator]	-2%

The results go on:
SMILES	LMNA splice mod	TRb-SRC2 inh	RECQ1 inh	JMJD2E inh	SMN2 splice up	GoLoco inh red	TR SRC2 fluor cs
COC(=O)c1cccc(N2C(=O)C3CC=CCC3C2=O)c1 (stereo not given)	-1%	1%	1%	6%	-8%	0%	-3%
O=C(NCc1ccco1)c1ccc(CS(=O)(=O)Cc2ccc(Cl)cc2)o1	?	-6%	i	4%	-22%	0%	1%
Nc1nnc(SCC(=O)N2CCN(Cc3ccccc3)CC2)s1	6%	-5%	-9%	4%	-10%	-46%	-2%
CCSCC1COC(c2cccn2Cc2ccc(C)cc2)=N1 (stereo not given)	7%	-11%	-18%	1%	-1%	-2%	-1%
Cc1cccc(N=Nc2cn[nH]c2-c2ccco2)c1	-3%[46 µM]	8%	-13%	-9%	?	-3%	-7%
Cc1ccc(S(N)(=O)=O)cc1	/	-6%[201 µM]	-4%	/	-3%	7%	-1%[201 µM]
O=C(CSc1nc(-c2ccccc2)nc2ccccc12)Nc1nccs1	13%	-6%	-13%	-5%	-12%	8%	0%
CSc1nc(C)c(C(=O)C[n+]2ccc(C)cc2)cc1C#N	0%[46 µM]	5%	-9%	-11%	15%	22%	-3%
CNC(=O)c1nn(-c2ccc(C)cc2)ccc1=O	-6%	-2%	-1%	-26%	4%	-10%	0%
COc1cc(/C=N/O)ccc1OCc1ccc(C(=O)O)cc1	-4%	7%	1%	0%	0.4µM*	-3%	0%
Cc1ccc(C)c2[nH]c(=O)c(CN(CCCN(C)C)C(=O)NCc3ccccc3)cc12	-13%	3%	0%	?	6%	-3%	-1%
CSc1nc(C)cc(OCCNS(=O)(=O)c2cc(C)ccc2C)n1	?	-2%	1%	4%	-28%	6%	-4%
CCOC(=O)c1cnn(-c2ccccc2)c1NC(=O)CSc1nnc(-c2cccs2)n1CC	6%	-1%	-6%	0%	-7%	8%	-1%
O=C(c1ccccc1)N1CCCC(c2nc3c(nnn3Cc3ccccc3)c(=O)[nH]2)C1 (stereo not given)	-6%	12%	-1%	12%	-8%	-6%	0%
CC(C)NS(=O)(=O)c1ccc(OCC(=O)N(C)Cc2ccccc2)cc1	-4%	-7%	-12%	0%	-10%	-13%	-2%
O=C(N/N=C/c1ccc(Br)s1)c1ccncc1	/	3%	i	-5%	1%	24%	0%
COc1ccc(CC(=O)NCc2cccs2)cc1OC	6%	0%	i	8%	-11%	-7%	-1%
CCOC(=O)/C=C1\SCC(=O)N1CC(=O)Nc1ccc(OC)c(OC)c1	-7%	-3%	i	7%	?	48%[activator]	-6%
CCOC(=O)c1c(C)cc(C)n2c1nc1ccccc12	-4%	-21%	-13%	?	5%	-5%	-1%
CCCCOC(=O)CCc1nc2ccccc2[nH]c1=O	-4%	1%	-12%	?	-5%	12%	-3%
Cc1nn(-c2cc(N3CCCCC3)ccc2N)c(=O)c2ccccc12	0%	-4%	i	-4%	-21%	4%	2%
c1cnc(N2CCN(c3nc4ccccc4n4cnnc34)CC2)nc1	-2%	10%	-10%	?	0%	2%	1%
Cc1ccc2nc(SCC(=O)Nc3ccc(C)c([N+](=O)[O-])c3)[nH]c2c1	-17%	-1%	?	-5%	-6%	-6%	-2%
Cc1cc(C)c(S(=O)(=O)N2CCN(c3nc4c(c(=O)n(C)c(=O)n4C)n3C)CC2)c(C)c1	-1%	4%	i	-16%	14%	-10%	-2%
O=C(/C=C/c1cccc([N+](=O)[O-])c1)NCCN1C(=O)S/C(=C\c2ccc(F)cc2)C1=O	2%	-9%	-9%	-7%	-10%	-4%	-2%

(continued)
SMILES	LMNA splice mod	TRb-SRC2 inh	RECQ1 inh	JMJD2E inh	SMN2 splice up	GoLoco inh red	TR SRC2 fluor cs
CCOC(=O)c1sc(NC(=O)CSc2nnc(Cc3ccccc3)o2)c(C(=O)OCC)c1C	8%	7%	-5%	-4%	-16%	-1%	-2%
COc1cccc(NC(=O)COC(=O)c2c(F)cccc2F)c1	1%	2%	-9%	-1%	14%	14%	0%
CC(C)C(=O)Nc1nc2c(ncn2C2CC(O)C(CO)O2)c(=O)[nH]1 (stereo not given)	4%	1%	1%	3%	-3%	5%	-1%
CC(=O)c1cccc(N(C(=O)CNC(=O)c2ccco2)C(C(=O)NC2CCCC2)c2ccc(C)o2)c1 (stereo not given)	-8%[46 µM]	6%	-6%	8%	/	7%	0%
C=CCn1c(C)cc(C(=O)CSc2nnc(NC(C)C)s2)c1C	1%	2%	i	-1%	10%	10%	-3%
CN(C1CCCCC1)S(=O)(=O)c1cccc(C(=O)OCC(=O)NC2CCCc3ccccc32)c1 (stereo not given)	1%	-4%	?	1%	17%	14%	2%
COC(=O)CSc1ccc(S(=O)(=O)N2CCOCC2)cc1[N+](=O)[O-]	-8%	-3%	-2%	5%	-5%	0%	0%
Cc1ccc(-n2c(Cc3cccn3C)nnc2SCC(N)=O)cc1	8%	-3%	i	-5%	3%	8%	0%
CCOC(=O)/C=C1\Nc2ccccc2OC1=O	?	2%	-10%	-4%	?	-2%	7%
CSC1=NCCN1C(=O)Cc1ccc(F)cc1	1%	-14%	-4%	0%	-7%	8%	-2%
CCNc1cc(N2CCCC2)ccc1[N+](=O)[O-]	-1%	-7%	-11%	-2%	-2%	2%	-4%
